Beta apoptosis: inhibitors of cytokine-induced beta cell apoptosis, primary screen, luminescence | 0.8% of 300,000 active | protection from apoptosis, % (test concentration not listed) | INS-1E cytokine-induced death, ATP luminescence, 48 h; percent of positive-control rescue, neutral wells zero;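 active = all replicates at 75% or more, or half of them and the mean; inconclusive = half reach 75% but not the mean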;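 also: 0% = cytokine-treated negative control wells and 100% = positive control rescue; higher means more ATP so stronger rescue from cytokine killing; wells of about 40 µL received 100 nL stock; the first replicate is given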
Calb FLC: C. albicans growth inhibition with fluconazole, primary screen, CaCi-2 strain, Alamar Blue fluorescence. C. albicans CaCi-2 (fluconazole-resistant clinical isolate) + fluconazole, 48 h. growth inhibition, % (no concentration beside the values). 0.57% of 300,000 active. AID 1979, 2009;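 active = most replicates above 75%; inconclusive = exactly half above 75%; inactive = most below 75%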;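 also: all wells also contain fluconazole at 8 µg/ml as a sub-toxic cotreatment; 0% = median of DMSO wells and 100% = median of geldanamycin control wells; wells of about 8 µL received 7.5 nL stock; the first replicate is given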
ALR inh: inhibitors of human ALR sulfhydryl oxidase, primary screen, biochemical, H2O2 detection, HRP-luminol luminescence, single point; FAD-linked sulfhydryl oxidase ALR (Homo sapiens), P55789; purified ALR, DTT oxidation; inhibition, % (test concentration not listed); 3.8% of 290,000 active; AID 485317, 2010;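 active = mean and each replicate at 75% or more; inconclusive = only one of the two met; inactive = neither met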;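 also: stock transfer was 7.5 nL into about 7.5 µL; 0% = neutral wells and 100% = wells with inactivated enzyme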
Target sequence (P55789 whole entry, looked up): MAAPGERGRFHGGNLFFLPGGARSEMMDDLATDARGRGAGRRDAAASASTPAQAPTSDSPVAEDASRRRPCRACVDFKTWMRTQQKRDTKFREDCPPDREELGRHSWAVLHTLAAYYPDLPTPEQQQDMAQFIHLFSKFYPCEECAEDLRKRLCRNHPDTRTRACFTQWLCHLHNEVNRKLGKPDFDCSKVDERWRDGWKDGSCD
FGF22 binding: binders of human FGF22 protein, primary screen, FGF22 synaptogenesis inhibitor project, biophysical, thermal shift, single point | 1.5% of 340,000 active | calls only at 9.99 µM | Fibroblast growth factor 22 (Homo sapiens), Q9HCT0 | recombinant FGF22 thermal shift, SYPRO orange fluorescence; percent of sucrose octasulfate shift, DMSO zero;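 active = melting point raised past a set limit in the mean and every replicate; inconclusive = no clear call; three in four hits are not shown here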
Target sequence (Q9HCT0 whole entry, looked up): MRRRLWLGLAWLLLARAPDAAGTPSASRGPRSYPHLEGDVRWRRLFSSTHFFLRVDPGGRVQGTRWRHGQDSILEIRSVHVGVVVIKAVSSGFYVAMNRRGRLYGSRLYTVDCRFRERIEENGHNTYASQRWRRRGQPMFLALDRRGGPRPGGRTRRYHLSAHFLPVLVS
Ecoli rRNA inh: reduced GFP signal of wild-type E. coli, primary screen, bacterial rRNA inhibitor project, GFP/RFP fluorescence, OD600, single point | E. coli WT GFP vs humanized-ribosome RFP mutants, 24 h; stronger effect = lower value; DMSO median 0, no signal -100 | 1.6% of 350,000 active | GFP signal change (wild-type ribosome), % (test concentration not listed);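 active = significant combined selectivity score with lowered wild-type GFP, culture density cut under 30%, mutant RFP and density less affected; inactive = any of these conditions unmet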; also: one replicate is shown; some compounds called inactive have numbers as strong as hits
MLL AF4-AF9 inh: inhibitors of AF4 peptide binding to AF9, primary screen, biochemical, AlphaScreen, biotin-AF4 peptide, FLAG-AF9, single point; Protein AF-9 (Homo sapiens), P42568; inhibition, % at 10 µM; 0.47% of 350,000 active;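 active = every replicate reaching a set inhibition limit, whatever the replicate mean, cut at about 25% in these data; inconclusive = mean inhibition reaches that limit but some replicates miss it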;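 also: 0% = plate neutral control median and 100% = total signal loss; the record names both 10 and 1 µM as test concentration; the first replicate is given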
Target sequence (P42568 whole entry, looked up): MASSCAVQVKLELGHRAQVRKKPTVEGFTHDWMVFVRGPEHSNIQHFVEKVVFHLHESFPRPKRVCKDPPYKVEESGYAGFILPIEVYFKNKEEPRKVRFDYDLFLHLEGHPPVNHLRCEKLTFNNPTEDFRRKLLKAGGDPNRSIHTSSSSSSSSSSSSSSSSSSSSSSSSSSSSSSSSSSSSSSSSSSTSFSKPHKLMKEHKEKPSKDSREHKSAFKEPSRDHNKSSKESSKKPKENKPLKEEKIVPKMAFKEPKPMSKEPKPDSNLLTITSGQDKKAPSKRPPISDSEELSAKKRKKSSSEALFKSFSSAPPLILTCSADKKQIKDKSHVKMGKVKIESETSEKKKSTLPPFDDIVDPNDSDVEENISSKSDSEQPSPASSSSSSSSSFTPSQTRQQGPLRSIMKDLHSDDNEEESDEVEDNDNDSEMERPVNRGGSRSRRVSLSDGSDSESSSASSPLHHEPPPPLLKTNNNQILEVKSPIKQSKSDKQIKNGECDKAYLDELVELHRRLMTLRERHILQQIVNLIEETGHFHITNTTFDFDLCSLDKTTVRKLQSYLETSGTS
RanGTP-Imp inh: inhibitors of RanGTP-importin-beta interaction, primary screen, biochemical, FRET, CFP-Ran, YFP-importin-beta, homogeneous; 1.1% of 300,000 active; cell-free CFP-Ran/YFP-importin-beta FRET ratio; AID 2216, 2009; inhibition, % (no concentration beside the values); Ran GTPase (GTP-bound) - importin-beta complex;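 active = most replicates above 15%; inconclusive = exactly half above 15%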;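 also: 0% = DMSO wells and 100% = Ran loaded with GDP instead of GTP; wells of about 40 µL received 100 nL stock; the first replicate is given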
T cruzi inh: inhibitors of intracellular T. cruzi growth, primary screen, luminescence, NIH3T3 host cells. AID 1885, 2009. inhibition, % (test concentration not listed). T. cruzi beta-gal in NIH3T3, 90 h. 1.4% of 300,000 active;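 active = mean inhibition across valid replicates above about 55%, limit read from the data; inconclusive = mean below that limit but half or more replicates reach it; inactive = mean below it, under half of replicates reach it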;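 also: signal also drops with host cell toxicity which is not excluded here; 0% = plate median of DMSO wells and 100% = zero luminescence signal; higher percent means less beta-gal luminescence so fewer parasites; stock transfer was 50 nL into about 50 µL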
Ecoli rRNA inh OD600: recorded beside Ecoli rRNA inh, whose call it bears; OD600 change, %; measured here: OD600 growth;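 optical density of the mix in the first replicate; 0 = DMSO median and -100 = no signal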
Ecoli rRNA inh RFP: also measured in Ecoli rRNA inh; calls as there; RFP signal change, %; measured here: RFP humanized mutant strains;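 first replicate; 0 = DMSO median and -100 = no signal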
The depositor's hits bear a star; i = inactive; ? = inconclusive; · = not tested or not shown.

SMILES	Beta apoptosis	Calb FLC	ALR inh	FGF22 binding	Ecoli rRNA inh	Ecoli rRNA inh OD600	Ecoli rRNA inh RFP	MLL AF4-AF9 inh	RanGTP-Imp inh	T cruzi inh
O=C1NN(c2ccccc2)C(=O)/C1=C/c1cccs1	3	-68	-1	i	14	14	0.3	0.0	·	-12
O=C(Nc1ccc2c(c1)OCCO2)c1cc2ccccc2o1	-6	-2	-3	i	-31	-48	-13	2.1	-2.9	16
CCCCSCCCNC(=O)CS(=O)Cc1nc(-c2cccc(C)c2)oc1C (stereo not given)	-7	13	99*	·	·	·	·	·	3.3	1
CC(C)Oc1ccc(C(=O)OCC(=O)NC2CCCCCC2)cc1	-9	·	9	i	-1	-33	-0.4	0.9	·	·
CC(=O)c1cccc(N2C(=NC(=O)C3CCCCC3)SC3CS(=O)(=O)CC32)c1 (stereo not given)	1	-5	-1	i	5	1	-0.3	-3.4	-2.9	-3
CC(C)N(Cc1nc(-c2ccccc2)no1)C(=O)Cc1ccccc1	-1	-5	-5	i	-2	-2	3.4	-1.6	-2.2	-6
CN(c1ccc(OCC(=O)OCC(=O)Nc2ccc(F)cc2)cc1)S(=O)(=O)c1ccc(Cl)cc1	-4	-5	-1	i	2	6	0.9	1.2	-1.8	3
CC(=O)Nc1ncc(N=Nc2cccc(C(F)(F)F)c2)s1	-24	3	2	i	0	7	1.1	0.1	3.3	4
Cc1c(C(=S)Nc2ccccc2)cnn1-c1ccccc1	-8	-17	6	·	·	·	·	·	-1.2	-26
COc1ccc(NC(=O)c2ccc(C)cc2)c(OC)c1	-6	17	-11	·	·	·	·	·	-0.2	1
COc1ccc(CN2CCC(Cc3ccccc3)CC2)c(C)c1C	2	0	-8	i	-11	-7	-2.9	5.8	1.2	38
CC(C)NC(=O)C1CCCN(S(=O)(=O)c2ccc(-n3cnnn3)cc2)C1 (stereo not given)	-2	25	-30	·	·	·	·	·	-0.9	-30
COc1ccc(C2(C(=O)NCc3ccccc3Cl)CCOCC2)cc1OC	3	13	·	i	13	8	-1.1	-1.3	3.3	11
CC1CCN(C(=O)COc2ccc(S(=O)(=O)N3CCOCC3)cc2)CC1	·	2	7	·	3	8	0.6	0.9	4.5	-7
CSC1=C(C#N)C(c2ccccc2Cl)C(C(C)=O)=C(C)N1 (stereo not given)	1	-23	15	·	-33	-30	-8.3	·	-4.0	30
[N-]=[N+]=NCCN1CCN(Cc2ccccc2)CCC1=O	-8	3	3	i	7	15	-6.5	-2.2	-3.1	-9
O=C(N/N=C/C(Br)=C/c1ccccc1)C(O)c1ccccc1 (stereo not given)	-11	-7	-5	i	-27*	-1.0*	3.3*	7.2	2.8	2
Cc1cc(/C=N/NC(=O)c2nn(C)cc2Cl)c(C)n1-c1cccc(Br)c1	0	-12	27	i	20	15	4.4	1.5	7.7	-18
CC(=O)Nc1ccc(C2NC(=S)N(c3ccccc3C(F)(F)F)C(C)=C2C(=O)N2CCOCC2)cc1 (stereo not given)	-5	-16	-8	i	-16	-32	13	0.5	-0.8	8
CCOC(=O)c1nnn2c1nc(N(CC)CC)c1ccccc12	13	7	19	i	-5	-4	1.1	-2.5	-1.2	3
CC1(C)NC(C)(C)c2nonc2/C1=N\O	-3	-3	·	·	·	·	·	·	-0.6	-11
CN1CCN(c2ccc(-c3cccc(NC(=O)COc4ccccc4)c3)nn2)CC1	-1	6	·	i	-10	-3	-5.3	-4.6	-3.6	47
Nc1nonc1-n1nnc(C(=O)c2ccccc2)c1-c1ccccc1	0	-1	-5	·	·	·	·	·	1.0	-6
O=C(NCCc1ccc(C(F)(F)F)cc1)c1ccc(Cl)nc1	6	-6	4	i	3	2	2.6	-2.2	-0.5	5
O=C(c1ccccc1)N1N=C(c2ccccc2)CC1c1ccccc1O (stereo not given)	9	-1	2	i	-56	-83	-17	9.8	0.3	33
CCOC(=O)c1cn2nc(Oc3ccc(C(=O)OC)cc3)ccc2n1	·	-5	1	i	2	-2	0.3	-3.0	0.5	1
CC(=O)NC(=S)Nc1cccc([N+](=O)[O-])c1	-1	-3	6	i	6	1	3.6	0.7	-2.7	-3
O=C(CC1Oc2ccccc2NC1=O)NC1CC1 (stereo not given)	·	-7	18	i	2	-3	-5.6	-9.2	3.6	-8
CC(Oc1ccccc1)C(=O)Nc1cccc(F)c1 (stereo not given)	-4	-10	-9	·	·	·	·	·	?	-3
CSc1ccccc1OCc1cc(C(=O)NCCC2=CCCCC2)no1	-7	-2	1	i	6	8	-1.1	-12	0.4	7
CC(C)N(C(=O)COC(=O)c1ccc(Cl)s1)c1ccccc1	-6	·	-1	i	-6	4	-4.0	-13	·	·
c1ccc2c(NCC3CCCO3)nc(N3CCCCC3)nc2c1 (stereo not given)	17	-5	-4	i	5	6	-8.4	?	6.8	23
Cc1cccc(N2C(=O)c3cccc4cccc(c34)C2=O)c1	·	12	-1	i	-16	-20	-1.9	6.9	5.6	-6
C=C(C)C1CC=C(C)/C(=N/NC(=O)c2cccc([N+](=O)[O-])c2)C1 (stereo not given)	-7	0	-3	·	·	·	·	·	-4.7	1
Cc1[nH]c2ccc(C(=O)N3CCN(c4ccccc4Cl)CC3)cc2c1C	-5	·	2	i	-5	-21	2.3	3.5	0.0	36
COc1cccc(NC(=O)C2C(c3ccccc3)C2(Cl)Cl)c1 (stereo not given)	6	-17	-6	i	-53	-78	-19	-3.5	-1.6	-5
Cc1ccc(C(C)(C)C)cc1S(=O)(=O)Nc1ncnc2sccc12	-1	·	8	i	-4	-23	-0.8	-1.3	·	·
COc1ccc(CN(C)C(=O)CNC(=O)Cc2cccc3ccccc23)c(OC)c1OC	-2	-13	-3	i	-7	-15	7.0	-1.2	0.3	2
O=C1NC2=C(C(=O)CCC2)C(c2ccccc2Cl)N1 (stereo not given)	-2	1	12	i	16	15	4.4	-0.7	-4.8	-7
CCc1nnc(N/N=C/c2c(C)[nH]c3ccccc23)n1N	6	10	99*	i	-3	6	0.3	-6.0	5.5	·
COc1ccc(Cn2nnnc2CN2CCOCC2)cc1	1	11	0	i	3	-10	-2.0	-46	-1.6	-12
N#C/C(=C(/O)COC(=O)CCCNC(=O)c1ccc(Cl)cc1)c1nc2ccccc2[nH]1	-1	5	·	·	·	·	·	·	2.0	-4
O=C(CNCC1CCCO1)Nc1ccccc1N1CCCCCC1 (stereo not given)	-2	-15	99*	·	·	·	·	·	4.0	-7
CC12CCC(=O)N1C(C(=O)NNC(=O)COc1ccccc1F)CS2 (stereo not given)	-12	·	0	i	3	5	-1.2	0.3	·	·
Cc1ccc(-n2c(C)cc(C(=O)COC(=O)C3=NNC(=O)CC3)c2C)cc1	15	0	0	·	·	·	·	·	-0.7	7
N/C(=N\OC(=O)c1ccc(Br)o1)c1ccccn1	2	-15	4	i	-1	-16	-3.6	-1.5	2.3	-20
Cc1ccc(-c2csc(NC(=O)N3CCOCC3)n2)cc1	-6	-4	57	i	-6	-11	5.8	-1.8	-0.2	6
Cn1nnnc1SCC(=O)Nc1ccccc1Cc1ccccc1	5	-3	-10	·	·	·	·	·	-2.0	-14
CCOC(=O)c1c(NC(=O)C2C3C=CC(C3)C2C(=O)O)sc2c1CC(C)CC2 (stereo not given)	-3	44	24	i	1	-1	-4.9	-0.5	-1.5	-10
COc1ccc(-c2cc(-c3ccccc3)nc(SCC(=O)Nc3nccs3)c2C#N)cc1	6	7	·	·	·	·	·	·	3.5	33
Cc1ncc(CO)c2cc(C(N)=O)c(=Nc3ccccc3)oc12	6	12	4	·	·	·	·	·	-2.3	-4
Cc1ccc(C)c(Cn2c(CO)nc3ccccc32)c1	-3	5	-9	·	·	·	·	·	3.9	-18
COCC1CCCCN1C(=O)c1ccc(OC2CCN(Cc3ccccn3)CC2)cc1 (stereo not given)	·	-1	-1	i	12	6	0.9	-1.0	0.0	3
Cc1ccc(C(=O)N2CCCC(CCC(=O)N3CCN(c4ccccn4)CC3)C2)cc1C (stereo not given)	18	23	1	i	-15	-8	1.5	-1.2	0.7	34
Cc1cc(C)cc(N2CC(C(=O)O)CC2=O)c1 (stereo not given)	-1	3	1	·	·	·	·	·	6.0	-18
CC(=O)Oc1ccc(C(=O)Nc2cc(NC(=O)c3ccc(OC(C)=O)cc3)cc(C(=O)NC(C)(C)C)c2)cc1	-4	-12	-2	i	-10	0	4.0	-1.0	-1.6	7
O=C1CCCC(=O)N1c1ccc(O)cc1	-3	-3	-6	i	10	9	-2.3	1.9	-3.6	-6
Cc1cccc(C(=O)NC2CCN(CC(=O)Nc3ccccc3Cl)CC2)c1	·	13	-1	i	-18	-20	-0.8	-1.6	2.4	3
Cc1ccc(NC(=O)CSc2nnc(NC(=O)C(C)C)s2)c(C)c1	-1	6	-9	i	8	2	0.2	-1.1	1.8	4
O=C(COc1ccccc1Cl)N(Cc1ccco1)C1CCS(=O)(=O)C1 (stereo not given)	-4	6	-3	·	·	·	·	·	-1.6	-14

More records follow.
SMILES	Beta apoptosis	Calb FLC	ALR inh	FGF22 binding	Ecoli rRNA inh	Ecoli rRNA inh OD600	Ecoli rRNA inh RFP	MLL AF4-AF9 inh	RanGTP-Imp inh	T cruzi inh
COc1nc(-c2cccc([N+](=O)[O-])c2)nc2ccccc12	9	7	-9	i	15	12	0.1	1.3	-2.9	-13
O=C(Nc1ccccc1)C1=C(O)CC(c2ccco2)CC1=Nc1ccccc1 (stereo not given)	3	-13	-19	·	·	·	·	·	0.6	16
Cc1ccc(S(=O)(=O)N2CCN(C(=O)N(C)C)CC2)cc1C	-12	31	-3	·	·	·	·	·	6.2	-18
O=C(NNC(=O)c1ccccc1F)c1ccc2[nH]c(=O)c(=O)[nH]c2c1	-4	·	-3	i	2	0	-2.0	-8.2	1.0	1
C[C@]12C=CC(=O)C=C1CC[C@H]1[C@@H]3C[C@@H](O)[C@](O)(C(=O)CO)[C@@]3(C)C[C@H](O)[C@@]12F	-4	-13	11	i	-10	-11	1.0	-3.9	-3.4	20
CN(c1ncnc(N)c1[N+](=O)[O-])C1CCCCC1	-26	1	-2	i	3	8	-2.7	-1.5	4.3	-21
Cc1oc2c(CN3CCCCC3)c(O)ccc2c(=O)c1-c1ccc(Cl)cc1	-7	9	-24	i	4	7	0.4	1.6	-3.8	1

This is a subset. The share of hits here may be higher or lower than overall.
